High-throughput results: PubChem BioAssay, Fisher Drug Discovery Resource Center
NPYLR7 agonist: activates Aedes aegypti NPYLR7 receptor; HEK293T NPYLR7/Galpha15, GCaMP6s calcium fluorescence; activation, % at 10 µM; actives 0.15% (n = 270,000); AID 1259423; in the data active means activation above about 40%;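 further: 0% = vehicle and 100% = reference agonist at the receptor; some compounds past the cut are filed as inactive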
NPYLR7 agonist max-min: second read-out of NPYLR7 agonist, no call of its own (marks repeat the call); activation, %; measured here: Max-Min RFU normalised activation; some inactives read as strong as hits;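 span of the calcium signal over five minutes; 0% = vehicle and 100% = native peptide agonist; compound fluorescence can raise it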
The depositor's hits bear a star.

SMILES | NPYLR7 agonist | NPYLR7 agonist max-min
CCC(C(=O)NC1CCN(c2ccccc2C(=O)NCC(C)C)CC1)c1ccccc1 (centres undefined) | -3 | 3
OCn1nc(-c2ccc(Cl)cc2Cl)oc1=S | 4 | 1
C=C1c2ccccc2C(=O)N1C(C)C(=O)Nc1cccc(-c2nc(CC)cc(=O)[nH]2)c1 (centres undefined) | 2 | 0
CN(Cc1ccc(Cl)cc1Cl)C(=O)C1CCN(S(=O)(=O)c2cc(C(N)=O)n(C)c2)CC1 | 0 | 11
O=[N+]([O-])c1ccc(Cl)c(C2c3cccn3CCCN2Cc2cccc(Oc3ccccc3)c2)c1 (centres undefined) | 20 | 19
CSc1nnc(C)c(=O)n1COC(=O)c1cccc(C)c1 | 0 | -2
Cc1cccc(COCC2CN(C(=O)c3cc(F)cc(F)c3)CCO2)c1 (centres undefined) | 18 | 8
CN(C)CCCSc1nc2ccccc2s1 | 3 | 10
CCOCCOc1nc(-c2ccc3c(c2)OCO3)n(-c2ccc(NC(=O)C3C[C@H]3c3ccccc3)cc2)n1 (some centres undefined) | 22 | 21
CCOc1ccc2nc(SCc3cn4cc(Br)ccc4n3)sc2c1 | 5 | 4
COc1ccccc1N1CCN(c2cc(Oc3cc(C)ccc3F)ncn2)CC1 | -7 | -5
CC(C#N)CN(C)C(=O)c1cc(Cl)c(Cl)n1C (centres undefined) | 0 | 18
COc1ccc(/C=C/CN2CCN(c3cc(-n4cccn4)ncn3)CC2)cc1 | 6 | 3
O=C(c1cnn(-c2ccccc2)c1)N1CCN(S(=O)(=O)c2cc(C(F)(F)F)ccc2Cl)CC1 | 0 | 3
Cn1ncc([N+](=O)[O-])c1C(=O)Nc1ccc(Br)cc1 | -5 | -7
COc1ccc(OCC(=O)N2CCOC(COCc3ccccc3F)C2)cc1 (centres undefined) | 15 | 4
CCCC(NC(C)C(=O)Nc1ccc(F)cc1)c1ccccc1 (centres undefined) | 2 | 1
COCCOCC(=O)N1CCCN(c2c(-c3ccc(OC)cc3)cnc3ncnn23)CC1 | 5 | -1
Cc1ccccc1-c1nc(COc2ccc(C(N)=O)cc2)c(C)o1 | 25 | 12
Cc1cccc2c1C(=O)NC1(CCN(C(=O)NC3CCCCC3)CC1)N2 | 1 | 5
COCCCn1c(Br)nc2c(=O)n(C)c(=O)n(C)c21 | 1 | 1
Cc1cc(C(=O)NCCCCOc2ccccc2)c2c(=O)[nH]n(C)c2n1 | 11 | 10
CC(C)N(Cc1c(-c2ccc(F)cc2)noc1N1CCN(C)CC1)C(=O)c1ccc(Cl)cc1 | -5 | -1
COc1ccc(S(=O)(=O)N2CCc3ccccc3C2)cc1N1CCN(C(=O)c2ccco2)CC1 | -4 | 9
CCOC(=O)C(Nc1cc(OC)c(OC)c(OC)c1)c1ccccc1 (centres undefined) | -1 | -1
CCc1cc2c(SCCCn3c(=O)c4c(ncn4C)n(C)c3=O)ncnc2s1 | 14 | 11
CCCC(O)(CCC)c1ccc(CN(Cc2ccc(C)cc2)C(C)C)o1 | -6 | -4
COC(=O)C12CCCC(C(=O)O)(CCC1)C2 | 2 | 6
O=C(NC1CC1)c1coc(CN(Cc2cccc(C(F)(F)F)c2)Cc2ccc(Cl)cc2Cl)n1 | 9 | -1
COc1cccc(-c2nn(Cc3ccc(C)cc3)c(=O)c3nc(C)sc23)c1 | 3 | 2
CCCc1nc(N2CCN(C(=O)CSc3ccccc3)CC2)c2c(-c3ccccc3)noc2n1 | 16 | 6
CNc1ccc(C(=O)N2CCOC(c3ccccc3)C2)cc1 (centres undefined) | 4 | 18
CCn1nnc2c(Nc3ccc(OC(F)(F)F)cc3)ncnc21 | 7 | 14
CCN1CCCC1CNC(=O)CCc1ccc(-c2ccc(OC)cc2)n1-c1ccc(SC)cc1 (centres undefined) | 2 | 1
COCCn1c(SCC(=O)Nc2cccc(C)c2C)nc2c([nH]c3ccccc32)c1=O | 1 | 0
O=C(NC(c1ccccc1)c1c(O)ccc2ccccc12)C1CCCO1 (centres undefined) | 13 | 10

Pulled by compound from the entries so far:
SMILES | NPYLR7 agonist | NPYLR7 agonist max-min
O=[N+]([O-])c1ccc(Cl)c(C2c3cccn3CCCN2Cc2cccc(Oc3ccccc3)c2)c1 (centres undefined) | 20 | 19
CCCC(NC(C)C(=O)Nc1ccc(F)cc1)c1ccccc1 (centres undefined) | 2 | 1
C=C1c2ccccc2C(=O)N1C(C)C(=O)Nc1cccc(-c2nc(CC)cc(=O)[nH]2)c1 (centres undefined) | 2 | 0
COCCCn1c(Br)nc2c(=O)n(C)c(=O)n(C)c21 | 1 | 1
COc1ccc(/C=C/CN2CCN(c3cc(-n4cccn4)ncn3)CC2)cc1 | 6 | 3

The results go on.
SMILES | NPYLR7 agonist | NPYLR7 agonist max-min
COc1cc(OC)cc(-c2nn(-c3ccccc3)c(OC(C)=O)c2-c2ccc(NC(=O)C3CC3)cc2)c1 | 8 | 13
O=C1N=c2ccc(Br)cc2=C1c1c(O)n(-c2ccccc2)[nH]c1=O | -9 | -15
Cc1cn2c(=O)c(C(=O)Nc3ccon3)cnc2s1 | 5 | 2
CN(Cc1cccc2ncccc12)C(=O)c1ccc(C2CCCN2)s1 (centres undefined) | 3 | 3
CCCS(=O)(=O)NC1CCN(C(=O)CCCc2nc(C)no2)C1 (centres undefined) | 1 | -1
O=C(c1cccnc1Cl)N1CCN(Cc2ccc(-c3noc(-c4cccs4)n3)cc2)CC1 | 7 | 19
NCCOCc1ccc(-c2cc3ccccc3o2)cc1 | 25 | 15
CCCn1nccc1C(=O)NCc1ccc2[nH]c3c(c2c1)CCCC3 | 10 | 6
CCN(CC)CCCC(C)NC(=O)c1c(C)noc1-c1ccncc1 (centres undefined) | 4 | 5
COc1ccc(OC2CCN(C3CCCC3)CC2)c(C(=O)NC2CCOC(C)(C)C2)c1 (centres undefined) | 7 | 3
CCOc1ccc(NC(=O)N[C@@H](C)C(=O)N2CCC(C(=O)N3CCCCC3)CC2)cc1 | 14 | 13
CCOC(=O)c1c(C)oc2ncn(CC(=O)NC(C)c3cccs3)c(=O)c12 (centres undefined) | 5 | 5
CC(C)(O)C#Cc1ccc(C(=O)N2CCC(Oc3ncccn3)CC2)cc1 | 0 | 0
CCc1cc(C(=O)N(CC)Cc2cnn(C)c2)cs1 | 5 | 4
CCOC(=O)c1nc2cc(Cl)c(Cl)cc2nc1N1CCCN(C(=O)COCCOC)CC1 | 5 | 3
CCCN(Cc1ccccc1OC)Cc1cccc(F)c1O | 1 | 2
O=C(O)CSc1nnc(Cc2c[nH]c3ccccc23)n1-c1cccnc1 | 2 | -2
CCN(CC)c1c(C)nc2ccc(C(=O)Nc3cc(-c4ccccc4)ccc3OC)cn12 | -3 | -9
COc1ccc(CC(=O)N2CCN(c3nc(CC(C)C)nc4onc(-c5ccc6ccccc6c5)c34)CC2)cc1 | 15 | 21
Cn1cnc(S(=O)(=O)NC(c2ccc(Br)cc2)C2CCC2)c1Cl (centres undefined) | 3 | 0
O=C(CSc1nc(=O)n(CCCN2CCOCC2)c2c1CCCC2)Nc1ccccc1F | 0 | 0
COc1cccc(C(=O)NC2CCN(c3ccccc3C(=O)NCCc3ccccc3OC)CC2)c1 | 0 | 9
C=CCSc1nnc(NC(=O)Cc2ccc(OC)c(F)c2)s1 | 7 | 13
COC(=O)c1ccc(CSc2ccc3nnc(-c4ccc(OC)cc4)n3n2)o1 | 1 | 11

Profiles from above. Values in the order: NPYLR7 agonist, NPYLR7 agonist max-min
`C=CCSc1nnc(NC(=O)Cc2ccc(OC)c(F)c2)s1` as listed: 7, 13
`Cn1cnc(S(=O)(=O)NC(c2ccc(Br)cc2)C2CCC2)c1Cl` (centres undefined) as listed: 3, 0
`CC(C)(O)C#Cc1ccc(C(=O)N2CCC(Oc3ncccn3)CC2)cc1` as listed: 0, 0

(continued)
SMILES | NPYLR7 agonist | NPYLR7 agonist max-min
COc1cc(C2C(=C(O)c3ccc(F)cc3)C(=O)C(=O)N2CCN(C)C)cc(OC)c1OC (centres undefined) | 2 | -4
Cc1nc2c(c(NCCc3ccncc3)n1)CNC2 | 5 | 3
O=C(NCCNC(=O)c1ccco1)NCc1ccc(Cl)cc1 | 8 | 4
Cc1cc2n(n1)CCN(S(=O)(=O)NCc1ccccc1)C2 | 6 | 6
O=C(NCCc1nnc2ccc(SCc3ccccc3)nn12)c1ccccc1 | 10 | 3
N#CCSc1nc2ccccc2s1 | 1 | 0
Cc1cc(C)c(S(=O)(=O)N2CCCCC2)cc1N(C)S(=O)(=O)c1cccc([N+](=O)[O-])c1 | -2 | 6
Cc1ccc(CSc2nc3c(c(=O)[nH]c(=O)n3C)n2Cc2cccc(C)c2)cc1 | 1 | 28
CCc1ccc(-n2c(C(CC)N(CCOC)C(=O)Nc3cccc(Br)c3)nc3ccccc3c2=O)cc1 (centres undefined) | 4 | 9
CC(C)NC(=O)C1CCN(C2CCN(Cc3nc(C(C)C)cs3)CC2)CC1 | -4 | -6
COCCOC(=NCCc1ccc(OC)c(OC)c1)NC(=O)c1ccc(OC)cc1 | 8 | 7
Cc1ccc(-c2csc(C(C#N)C=Nc3ccc(S(=O)(=O)Nc4cc(C)on4)cc3)n2)cc1 (centres undefined) | 4 | 3
COc1cccc(Cc2c(C)nc(C)nc2N2CCN(C(=O)C(C)Cl)CC2)c1 (centres undefined) | 22 | 34
COCCN1C(=O)C2C(c3ccccc3O)NN(Cc3ccccc3)C2C1=O (centres undefined) | -10 | -13
Cc1cccc(Cc2c(C)[nH]c(=S)[nH]c2=O)c1 | -1 | 4
Cc1cccc(N2C(=S)SC3CS(=O)(=O)CC32)c1 (centres undefined) | 1 | -5
Cc1sc2nc(CSc3nnc(Cc4cccs4)n3C3CC3)[nH]c(=O)c2c1C | 0 | 15
CC1CCN(C2=C(c3c(C(C)C)[nH]n(-c4ccc(Cl)cc4)c3=O)C(=O)N(Cc3ccc(F)cc3)C2=O)CC1 | 5 | 9
CC1CCN(C(=O)C(C2CCCC2)N2CCN(C(=O)c3cccc(Cl)c3)CC2)CC1 (centres undefined) | -5 | 13
CCc1c(C)c(C(=O)N2CCCC2)n(Cc2cccc(C)c2)c1C | -7 | -8
CN1CCC(CNC(=O)c2cccc(NC(=O)C3CCCC3)c2)C1 (centres undefined) | 4 | 2
FC(F)(F)c1ccccc1-n1c(-c2snnc2-c2ccccc2)n[nH]c1=S | -3 | -5
COc1ccc(-c2nc3c(n2O)CCc2nonc2-3)cc1OC | 17 | 9
COCCN(CC(=O)Nc1nc(CC(=O)N2CCN(c3ccccc3C)CC2)cs1)C(=O)c1ccccc1Cl | 14 | 17

Arranged by molar mass (falling): some entries from above.
SMILES | NPYLR7 agonist | NPYLR7 agonist max-min
O=C(c1cccnc1Cl)N1CCN(Cc2ccc(-c3noc(-c4cccs4)n3)cc2)CC1 | 7 | 19
COCCN1C(=O)C2C(c3ccccc3O)NN(Cc3ccccc3)C2C1=O (centres undefined) | -10 | -13
CC(C)(O)C#Cc1ccc(C(=O)N2CCC(Oc3ncccn3)CC2)cc1 | 0 | 0
COCCCn1c(Br)nc2c(=O)n(C)c(=O)n(C)c21 | 1 | 1
CN1CCC(CNC(=O)c2cccc(NC(=O)C3CCCC3)c2)C1 (centres undefined) | 4 | 2
Cc1nc2c(c(NCCc3ccncc3)n1)CNC2 | 5 | 3

(list continues)
SMILES | NPYLR7 agonist | NPYLR7 agonist max-min
COc1ccc2nc(-c3ccc(NC(=O)C(C)Oc4cccc(F)c4)cc3)cn2n1 (centres undefined) | -1 | -2
Cc1cc(C)cc(-n2nnnc2SCC#N)c1 | 2 | 1
COC(=O)C1C(=O)c2c([nH]c(C(=O)OC3CCCCCC3)c2C)CC1C (centres undefined) | 7 | 0
Cc1cn2c3c(=O)n(Cc4ccccc4)c(=O)n(C)c3nc2n1CC1CCCO1 (centres undefined) | 2 | 12
O=C(CSc1nnc(NC(=O)c2ccc([N+](=O)[O-])cc2)s1)Nc1ccc(Br)cc1 | -9 | -17
COCCN1CCCC[C@]2(C[C@H](CO)[C@H](c3ccccc3)N2C(=O)C2CCCC2)C1=O | 5 | 10
CCOc1ccc2ncc(C#N)c(Nc3ccc(OC)c(OC)c3)c2c1 | 2 | -3
CCCN(C)C(=O)c1cccn1C1CCN(C(=O)OC(C)(C)C)CC1 | 0 | 9
NC(=O)N/N=C\c1ccc(Oc2ccc(F)cc2)cc1 | 5 | -4
COc1cc(C2CNN=C2C(=O)c2ccccc2)cc(OC)c1OC (centres undefined) | 0 | 1
O=C(CCN1CCN(CCc2ccncc2)CC1)Nc1nccs1 | 22 | 15
Cn1nc(C2CCN(C(=O)CCn3ccnc3)CC2)n(-c2ccccc2)c1=O | 22 | 10
COc1ccc(/C=C/c2ccc3ccccc3n2)c(OC)c1 | 2 | -4
Oc1[nH]c2ccc(Br)cc2c1N=Nc1cccc2cccnc12 | 12 | 10
Cc1ccc(NS(=O)(=O)c2cc(C(=O)Nc3ccccc3)ccc2Cl)cc1 | -14 | -20
CC1=NOC(C(=O)NCc2cnn3ccccc23)C1 (centres undefined) | 18 | 9
CC(C)(C)C(=O)N1CCc2ccccc2C1c1ccccc1Cl (centres undefined) | 11 | 4
O=C(NNC(=O)c1cn[nH]c1-c1ccc(F)cc1)c1ccc(F)cc1 | 7 | 1
Cc1cccc(CN(Cc2ccco2)CC(O)Cc2ccccc2)c1 (centres undefined) | -4 | 0
COc1ccc2[nH]c(C)c(CC(=O)N3CCC[C@H]3C(=O)NC(c3ccccc3)c3ccccc3)c2c1 | 3 | 10
CC1CCCC(OC(=O)c2cccc(S(=O)(=O)N(C)C)c2)C1 (centres undefined) | 1 | -3
Cc1nncn1CCNC(=O)c1cc2cc(F)ccc2o1 | -8 | -9
CC(NC(=O)NCc1ccn[nH]1)C1CCCO1 (centres undefined) | -3 | -7
Cc1ccc(C)c(OCC(O)Cn2c(=O)c(C(F)(F)F)nc3ccccc32)c1 (centres undefined) | -2 | -3
CCCCCCC(=O)Nc1ccc(N2CCCC2)c(C(=O)NC(C)c2ccccc2)c1 (centres undefined) | -8 | 2
CN(C)S(=O)(=O)c1cccnc1OCC(O)CNC(C)(C)C (centres undefined) | -9 | -9

Not all compounds are listed (hit frequency here may not be typical).
